MgrA-DNA mod – alters Staphylococcus aureus MgrA binding to DNA. fluorescence polarization. inhibition, %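 (about 10 µg/mL by stock and volumes)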. 84,000 tested, 0.13% active. AID 602314;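 active = above 50% in either of two replicates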;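 also: 0% = protein plus DNA without compound and 100% = DNA alone without protein; higher means less MgrA bound to DNA so lower polarization; one replicate is shown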
S aureus helic – S. aureus DNA helicase inhibition; AID 485395; inhibition, %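 (tested at about 80 µM)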; 120,000 tested, 0.05% active; purified S. aureus helicase, fluorescence unwinding assay; about half of the hits fall short of the stated cut;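 active = both duplicates at 50% or more, or one of them with a favoured structure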;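 also: 0% = mean of negative control wells and 100% = mean of positive control wells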
Active calls of the source: *; . = not tested or not shown; & = joins results of further samples.

SMILES | MgrA-DNA mod | S aureus helic
O=C1CCCC2=C1C(c1ccco1)C1=C(N2)c2ccccc2C1=O (stereo not drawn) | . | 11
O=S(c1nc2ccccc2[nH]1)C(F)(F)F (stereo not drawn) | . | 8
O=C(Nc1cccnc1)c1cc(-c2ccc(F)cc2)no1 | . | 12
Cc1nc2cc(CC(=O)O)ccc2s1 | -1.4 | -15
COC(=O)NCCSc1nnnn1-c1ccccc1 | 3.2 | -20
Cc1c(-c2ccccc2)nc2sc3c(c2c1N)CCCC3 | 0.5 | 7
Cc1nn(CC(=O)N2CCCCC2)c(=O)c2ccccc12 | . | -13
Nc1cc(-c2ccccc2)nn1CC1CCCCC1 | -2.3 | 9
CCn1c(=O)c(C(=O)CN(C)CC(=O)Nc2ccccc2Br)c(N)n(Cc2ccccc2)c1=O | . | -12
CC(C)C(NC(=O)C(c1ccccc1)c1ccccc1)C(=O)N1CCOCC1 (stereo not drawn) | -0.7 | 11
CC(C)(C)N1CN=C(SCc2ccc(Cl)cc2)NC1 | -1.4 | .
COc1ccc(/C=C2/NC(=O)NC2=O)cc1 | 1.9 | 5
COC(=O)CNC(=O)c1cccnc1Oc1ccc(C)cc1 | -2.6 | .
CSc1nsc(SC)c1C(=O)NC(C)C | 3.0 | .
CCN(c1ccccc1)S(=O)(=O)c1ccc2[nH]cc(C(=O)N3CCOCC3)c(=O)c2c1 | 4.0 | 9
O=C(Nn1cnnc1)c1cc(-c2ccccn2)nc2ccccc12 | . | -5
CC(C)(C)c1cc(C(=O)Nc2cccnc2)cc(C(=O)Nc2cccnc2)c1 | -0.3 | .
CCOC(=O)N/N=C1\CC(C)S(=O)(=O)c2ccc(Cl)cc21 (stereo not drawn) | 4.4 | .
O=S(=O)(c1cccs1)N1CCN(c2cccc(Cl)c2)CC1 | . | 2
O=C(N=Nc1c(O)[nH]c(=O)[nH]c1=O)c1ccccn1 | 9.3 | 5
COc1ccc(C2=Nc3ccccc3C2=O)cc1 | -0.8 | -3
O=S(=O)(c1cccc(-c2nnc(SC(F)F)n2-c2ccccc2)c1)N1CCCCC1 | . | -6
CCOC(=O)c1ccc(NC(=O)c2sc(NC(=O)c3ccc(Cl)cc3)c(C(=O)OCC)c2C)cc1 | 2.6 | .
CC(C)(C)C1CCc2onc(C(=O)Nc3ccccc3C(F)(F)F)c2C1 (stereo not drawn) | . | -16
CC(=O)Nc1nc(Br)sc1Cc1ccc(C)cc1 | . | 23
O=C(O)c1ccccc1NS(=O)(=O)c1cccc2nsnc12 | . | 9
Cn1c(=O)cc(SCC(=O)N2CCCC2)c2ccccc21 | 0.5 | 14
Cc1cc(C(=O)COC(=O)[C@@H]2CCCN2C(=O)c2cccs2)c(C)n1Cc1ccco1 | . | 8
CN(C(=O)C1CCC1C(=O)O)c1nc(-c2ccc(Cl)s2)cs1 (stereo not drawn) | 0.2 | .
O=C(CCN1CCCCC1)Nc1ccc(Cl)cc1 | -1.9 | 13

A different layout for part of the listing above:
SMILES	MgrA-DNA mod	S aureus helic
Cc1cc(C(=O)COC(=O)[C@@H]2CCCN2C(=O)c2cccs2)c(C)n1Cc1ccco1	.	8
CN(C(=O)C1CCC1C(=O)O)c1nc(-c2ccc(Cl)s2)cs1 (stereo not drawn)	0.2	.

The list goes on:
SMILES | MgrA-DNA mod | S aureus helic
Cn1nnc(N2C(=O)C(O)=C(C(=O)c3ccco3)C2c2ccccc2)n1 (stereo not drawn) | -3.6 | 8
O=c1c2ccccc2n2c(=S)[nH]nc2n1-c1ccccc1 | . | 27
O=C(O)CNC(=O)COc1cccc2ccccc12 | . | -9
O=C(c1ccccc1C(=O)N1CCCCC1)N1CCCCC1 | -6.4 | 1
O=C(O)CCS(=O)(=O)Cc1cccc(Cl)c1 | . | 10
N#Cc1ccc(C(CO)CO)nc1 | 1.1 | 8
CCCNC(=O)N1CCc2cc(OC)c(OC)cc2C1c1cc2cc3c(cc2[nH]c1=O)OCO3 (stereo not drawn) | 20 | 5
CCOC(=O)/C(C#N)=C(/N)c1cc2cccc(OC)c2oc1=O | -1.2 | 9
COc1ccc(NC(=O)CSc2nc3ccccc3o2)cc1 | . | 5
CC1=CC(c2ccccc2)=C(C#N)C(=S)C1CC(=O)c1cccs1 (stereo not drawn) | 3.3 | -1
COc1cc(N)c(C#N)cc1OC | 1.0 | 15
Cc1nnc(NC(=O)Cc2n[nH]c(=O)c3ccccc23)s1 | . | 4
O=C(CSc1ncnc2ccccc12)N1CCOCC1 | . | -1
O=C(Nc1ccc2[nH]ccc2c1)c1cccnc1Sc1ccccc1 | 3.9 | .
S=c1[nH]nc(-c2c[nH]c3ccccc23)n1CC1CCCO1 (stereo not drawn) | . | 7
CCS(=O)(=O)C1=NN2C(=N)/C(=C\c3ccc(-c4ccccc4)o3)C(=O)N=C2S1 | . | -54
O=C(/C=C/c1ccco1)N1CCCc2ccccc21 | . | 24
CCOC(=O)/C=C1\SCC(=O)N1CC(=O)Nc1ccc(OC)c(Cl)c1 | . | -21
Cc1ccc(CSC2=NCN(C(C)(C)CC(C)(C)C)CN2)cc1 | -1.2 | .
O=C(NCc1cccnc1)[C@H](Cc1ccccc1)N1Cc2ccccc2C1=O | . | -9
Cc1ccc(-n2nc(C)c3nc(CCC(=O)O)c(=O)n(C)c32)cc1 | . | -19
CC(C)CN=C1NC(=O)C(CC(=O)NC2CC2)S1 (stereo not drawn) | . | -4
c1ccc(OCc2nc(-c3ccccc3)no2)cc1 | . | 1
COc1ccccc1CN(C)CC(=O)NC(=O)NC1CCCCC1 | . | -5
CN1CCCc2cc(/C=N/n3c(C(F)(F)F)n[nH]c3=S)ccc21 | 1.2 | 6
CSc1nnc(COc2ccc(C)c3c2CCC3)n1-c1ccccc1 | -4.0 | .
CCOc1ccc(/C=C2\SC(=Nc3cccc(C)c3C)NC2=O)cc1 | 3.0 | -3
COc1ccc(NC(=O)c2ccc(N3C(=O)c4ccccc4C3=O)cc2)cc1 | 0.5 | 9
CCOc1ccc(N2CC(c3nc4ccccc4n3CCCc3ccccc3)CC2=O)cc1 (stereo not drawn) | 0.7 | -11
Cc1cccc(N2CCN(CCNC(=O)c3cc4sccc4n3C)CC2)c1C | . | 20
N#CCC(=O)Nc1cc(C(F)(F)F)cc(C(F)(F)F)c1 | 0.0 | .
COc1ccc(C2=NOC(C(=O)Nc3c(C)n(C)n(-c4ccccc4)c3=O)C2)cc1 (stereo not drawn) | . | 8
Cc1nnc2n(c1=O)N=C(N)CS2 | 2.5 | -4
CC1CCCCC1NC(=O)CSc1nnc(-c2ccco2)n1Cc1ccccc1 (stereo not drawn) | . | 25
Cc1nn(Cc2ccccc2)c2sc(C(=O)O)cc12 | -6.2 | 15
Cc1ccc(N=C(NN)c2ccc3ccccc3n2)cc1 | 4.2 | 10
CCOC(=O)C1=C(C)N=c2s/c(=C/c3ccc(OC(=O)c4ccco4)cc3)c(=O)n2C1c1ccccc1 (stereo not drawn) | -2.2 | .
O=C(Nc1ccc2nsnc2c1NC(=O)c1ccc2nsnc2c1)c1ccc2nsnc2c1 | . | 24
CCN=C(NCC)SC1CC(=O)N(c2ccc(OCC)cc2)C1=O (stereo not drawn) | 0.2 | 10
O=C(CCCC1CCCCC1)NCC1CCCO1 (stereo not drawn) | 0.5 | 8
CC1(C)CC(/C=C/c2ccccc2)=Nc2ccccc2N1 | 0.8 | -7
c1ccc2c(c1)oc1c(NCC3CCCCC3)ncnc12 | . | 9
Cc1ccc(-c2csc(NC(=O)C(C)C)n2)c(C)c1 | . | -9
Cc1ccc(N/N=C2/C(=O)C3(C)CCC2C3(C)C)cc1 (stereo not drawn) | . | 18
Cc1ccc(NC(=O)C(Cc2c[nH]c3ccccc23)NC(=O)OCc2ccccc2)cc1C (stereo not drawn) | -1.1 | -2
NC(N)=NS(=O)(=O)c1ccc(N=Cc2cccs2)cc1 | -0.8 | 6
O=C1NC(Cc2c[nH]c3ccccc23)C(=O)N1CN1CCCCC1 (stereo not drawn) | . | 8
Cc1ccc(C(=O)NC(Nc2cc(C)on2)(C(F)(F)F)C(F)(F)F)cc1 | . | -9
Fc1ccc(CNC(=S)NCCN2CCOCC2)cc1 | . | 13
CS(=O)(=O)Nc1ccc(C2=NN(S(C)(=O)=O)C(c3ccc4c(c3)OCO4)C2)cc1 (stereo not drawn) | 1.5 | -8

The list goes on.
SMILES | MgrA-DNA mod | S aureus helic
CCOC(=O)c1ccc(NC(=O)c2sc(NC(=O)Cc3cccs3)c(C(=O)OCC)c2C)cc1 | -1.5 | .
COc1ccc(C2Nc3ccccc3C(=O)N2c2ccc(C)cc2)cc1CSc1ccccn1 (stereo not drawn) | -0.8 | .
O=C(CSc1ccc2c(c1)OCCO2)N1CCC(c2ccccc2)=N1 | . | 8
O=C(OCCO)c1cccc2c1-c1ccccc1C2=O | -0.9 | .
c1ccc2[nH]c(SCc3ccncc3)nc2c1 | . | -19
COc1ccccc1N1CCNC(C)C1=O (stereo not drawn) | -3.1 | 7
Oc1[nH]c2ccccc2c1C=NCc1ccc2c(c1)OCO2 | 5.3 | -4
Cc1ccc(N2COc3ccc4c5c(c(=O)oc4c3C2)CCCC5)c(C)c1 | . | 16
CO/C=N/c1nc2c(s1)CCc1ccccc1-2 | -1.7 | .
O=C(CCc1nc2ccccc2[nH]1)NCc1ccc(F)cc1 | . | 9

An excerpt of these results, as a markdown table:
| SMILES | MgrA-DNA mod | S aureus helic |
| --- | --- | --- |
| CO/C=N/c1nc2c(s1)CCc1ccccc1-2 | -1.7 | . |
| c1ccc2[nH]c(SCc3ccncc3)nc2c1 | . | -19 |
| O=C(OCCO)c1cccc2c1-c1ccccc1C2=O | -0.9 | . |
| Cc1ccc(N2COc3ccc4c5c(c(=O)oc4c3C2)CCCC5)c(C)c1 | . | 16 |
| CCOC(=O)c1ccc(NC(=O)c2sc(NC(=O)Cc3cccs3)c(C(=O)OCC)c2C)cc1 | -1.5 | . |
| O=C(CSc1ccc2c(c1)OCCO2)N1CCC(c2ccccc2)=N1 | . | 8 |
| Oc1[nH]c2ccccc2c1C=NCc1ccc2c(c1)OCO2 | 5.3 | -4 |

Continued:
SMILES | MgrA-DNA mod | S aureus helic
CC1CCCCN1S(=O)(=O)CCNC(=O)c1ccccc1 (stereo not drawn) | . | 13
O=C1N=c2ccccc2=C1c1sc(=S)n(NC(=O)c2ccc(Br)cc2)c1O | -2.0 | .
O=C(Oc1cccnc1)c1ccc(Cl)c(Cl)c1 | . | 17
CS(=O)(=O)c1ncc(Cl)c(C(=O)Nc2sc3c(c2C(=O)NCC2CCCO2)CCC3)n1 (stereo not drawn) | 1.6 | -6
CN1CCN(c2nc3ccccn3c(=O)c2/C=C2\SC(=S)N(CCc3ccccc3)C2=O)CC1 | 1.6 | .
NC(=O)COC(=O)c1cccc(S(=O)(=O)N2CCN(c3ccccc3)CC2)c1 | . | -8
c1ccc(-n2nnnc2SCCSc2nnnn2-c2ccccc2)cc1 | . | 4
C/C(=N\NC(N)=S)C1(C)N(O)C(C)(C)C(c2cccs2)=[N+]1[O-] (stereo not drawn) | . | 0
CC(CNC(=O)c1nnc(Cc2ccc(Cl)cc2)o1)c1ccccc1 (stereo not drawn) | -1.9 | 4
COCCN1Cc2cccc(C(=O)N3CCN(c4ccccc4)CC3)c2C1=O | . | 16
COC(=O)c1ccccc1N1C(=O)CC(Sc2ccccc2N)C1=O (stereo not drawn) | -1.3 | .
COc1ccccc1OCCN(C#N)c1nc(N(C)C)nc(N(C)C)n1 | 0.6 | .
O=c1c2cc([N+](=O)[O-])ccc2oc2ncccc12 | 1.5 | .
N#Cc1ccc(Br)cc1 | . | -13
O=C(c1cc2c(s1)CCC2)N1CCN(S(=O)(=O)c2cccc(Br)c2)CC1 | . | -9
Cc1ccc(S(=O)(=O)OCC(C)(C)[N+](=O)[O-])cc1 | -0.5 | .
CCCN(CCC)S(=O)(=O)c1c(C(=O)OCC)c(C)n(C)c1C | . | 8
O=C(NCc1ccco1)C(=S)NCc1ccccc1 | 19 | -10
O=C(Nc1ccccc1Cl)c1ccccc1 | . | -25
ON(/C=C1\C=Nc2ccccc21)c1ccccc1 | . | -14&-7

Arranged by value in MgrA-DNA mod (low to high): five from the list above.
SMILES | MgrA-DNA mod | S aureus helic
COC(=O)c1ccccc1N1C(=O)CC(Sc2ccccc2N)C1=O (stereo not drawn) | -1.3 | .
Cc1ccc(S(=O)(=O)OCC(C)(C)[N+](=O)[O-])cc1 | -0.5 | .
COc1ccccc1OCCN(C#N)c1nc(N(C)C)nc(N(C)C)n1 | 0.6 | .
O=c1c2cc([N+](=O)[O-])ccc2oc2ncccc12 | 1.5 | .
O=C(NCc1ccco1)C(=S)NCc1ccccc1 | 19 | -10

(next part)
SMILES | MgrA-DNA mod | S aureus helic
NS(=O)(=O)c1ccc(-n2cccc2C=Nn2cnnc2)cc1 | -2.7 | 2
Cc1ccc(-c2c(C#N)c(N)n(C)c(=O)c2C#N)c(C)c1 | -0.9 | -5
CN(CC(=O)Nc1ccccc1Cl)Cn1nc(-c2ccco2)oc1=S | . | 9
CN1C(=O)C(C)(C)N(Cc2ccccc2)c2ccccc21 | . | 23
CCOC(=O)c1cnc2c(-c3ccc(Cl)cc3)cnn2c1C | 0.7 | 14
COc1c(O)cc2c(c1OC)CC(=O)CCC2 | -2.1 | 5
O=C(CS(=O)(=O)Nc1ccc(Cl)cc1)CS(=O)(=O)Nc1ccc(Cl)cc1 | 2.8 | .
Oc1ccc(Oc2c(Cl)cncc2Cl)cc1 | 0.9 | .
CS(=O)(=O)CCC(C(=O)Oc1cccc2cccnc12)N1C(=O)c2ccccc2C1=O (stereo not drawn) | . | 12
CS(=O)(=O)c1ccccc1C(=O)N(Cc1cccs1)c1ccc2c(c1)OCCO2 | . | 0
CCOC(=O)c1cccc(NS(=O)(=O)c2cc(C(=O)OCC)n(C)c2)c1 | 0.3 | 8

Some of the compounds tested; count on the stated rates, not on these rows.
